Bioassay records as filed in PubChem.
CapD inh: CapD enzyme inhibition; purified CapD enzyme, fluorescence intensity read-out; stronger effect = lower value; some hits fall short of the stated cut; z-score (no concentration beside the values); 0.23% of 140,000 active; AID 492967;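 active = z-score under -4 in either of two replicates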;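 also: stock transfer was 100 nL into about 40 µL; score is relative to mean and spread of the plate; one replicate is shown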
AID504770: growth inhibitors of E. coli YBA685 in a screen for V. cholerae RctB (chromosome II replication) inhibitors | z-score (test concentration not listed) | 0.27% of 130,000 active | E. coli YBA685 rctB-dependent plasmid, OD600 growth, 3 h; stronger effect = lower value;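 active = z-score under -2 on both plates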;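 also: wells of about 30 µL received 100 nL stock; score is relative to mean and SD of the test wells; the first replicate is given; strong numbers were not always called active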
* marks the source's active call; other numbers are inactive results; i = inactive; . = no result given; & = joins results of further samples. Compounds were not picked by outcome (roughly 0.37% active in at least one column).

mol | CapD inh | AID504770
CCCOc1ccc(Oc2nc(N(C)C)nc(N(C)C)n2)nn1 | -0.015 | -0.1
CC1CCN(C(=O)c2ccccc2NS(=O)(=O)c2ccc(F)cc2)CC1 | -0.82 | -0.45
Cc1cc(Oc2ccc(=O)n(C)n2)nc(Oc2ccc(=O)n(C)n2)n1 | 1.1 | -0.6
CCn1c(=NC(=O)c2ccc(C#N)cc2)sc2cccc(F)c21 | . | -2.4
CN(C)c1nn(C(=O)Nc2ccc(Cl)cc2Cl)cc1-c1ccccc1 | 2.2 | .
CC(=O)N1c2ccccc2NC2=C(C(=O)CCC2)C1c1ccc(N(C)C)cc1 (stereo not drawn) | -0.035 | -0.05
OC(CN1C2=NCCN2c2ccccc21)c1ccc(Br)cc1 (stereo not drawn) | -0.3 | .
CSC1=C(C#N)C(=O)NC(c2ccc3c(c2)OCO3)S1 (stereo not drawn) | -2.1 | .

More entries follow.
mol | CapD inh | AID504770
CCOC(=O)C1CCCCN1C(=O)CCc1c(C)nc2ncnn2c1C (stereo not drawn) | -0.78 | -0.85
CCc1ccc(Nc2nc3ccccc3c3nncn23)cc1 | 1.2 | 0.3
O=C(COC(=O)C1(c2ccccc2F)CCCC1)NC1CC1 | 0.09 | -0.25
CC(=O)N1c2ccccc2Sc2ccccc21 | . | 0.8
CSc1nc(Sc2ccc(F)cc2)c2cnn(-c3ccccc3)c2n1 | 0.54 | .
CN(C)S(=O)(=O)c1ccc2c(c1)oc(=O)n2C | . | 1.6
C=CCN1C(=O)C2C(C(=O)NCc3ccccc3)C3C=CC2(O3)C1C(=O)NC(C)(C)C (stereo not drawn) | . | 1
NC(=O)c1nnc(Cc2ccc(Cl)cc2Cl)o1 | -0.16 | -0.15

Other records:
mol | CapD inh | AID504770
CC1=Nc2nc(N3CCOCC3)c(C#N)c3c4c(nc(c23)N1)N(c1cccc(Cl)c1)C(=O)C4 | . | -1.9
COC(=O)/C(C#N)=C\Nc1ccccn1 | -2.4 | 0
COCCOC(=O)c1c(C)oc2ccc(OCc3cccc(Br)c3)cc12 | 0.14 | .
Cc1cc(C(F)(F)F)c2c(N)c(C(=O)Nc3ccc(F)cc3)sc2n1 | 0.2 | .
COc1ccccc1-c1[nH]ncc1CNCCc1ccccc1 | -0.44 | -0.7
Cc1ccc(-c2nn(CCC#N)cc2CO)cc1 | 0.49 | -1.3
CCOC(=O)Cc1cc(=O)c2c(=O)n(-c3ccccc3)[nH]c2[nH]1 | -1.1 | 1.7
O=C(c1cccc(C(=O)n2cnc3ccccc32)c1)n1cnc2ccccc21 | -0.17 | 0.2

Later entries:
mol | CapD inh | AID504770
CC(O/N=C/c1ccco1)C(=O)N1CCN(Cc2ccccc2)CC1 (stereo not drawn) | . | -0.3
C=CCN1COc2c(ccc3c(C(=O)OCC)c(NC(=O)c4ccccc4)sc23)C1 | 3.1 | 2.4
CCc1cc2c(=O)c(-c3nc(C)cs3)coc2cc1O | 0.18 | -0.35
CC1CC(=O)Nc2ccccc2N1C(=O)Cn1cnc2ccc(Br)cc2c1=O (stereo not drawn) | . | 2.3
O=C(CSc1nc2scc(-c3ccccc3)c2c(=O)[nH]1)c1ccccc1 | -0.84 | 1.4
O=C(Nc1ccc(N2CCCCC2)cc1)C1CCCC1 | . | 0.1
COc1cccc(C(=O)N/N=C/c2ccccc2SC(C)(C)C)c1 | -0.3 | .
COc1ccc(NC(C)C(=O)N/N=C/c2ccccc2OC)cc1 (stereo not drawn) | -0.35 | 1.1

Additional records:
mol | CapD inh | AID504770
CSc1nc(N)nc(SCCS(=O)(=O)c2ccc(Cl)cc2)c1C#N | 0.62 | 0.35
COc1ccc(CNC(=O)OCc2cccc(OCc3ccccc3)c2)c(OC)c1 | -0.48 | .
Cc1ccc2c(c1)C1CN(C)CCC1N2C(=O)Nc1ccc(F)cc1F (stereo not drawn) | . | -0.05
CC(=O)N1[C@@H](c2ccc(F)cc2)SC[C@H]1C(=O)O | 0.5 | -0.15
CCSc1nnc(C)c(=O)[nH]1 | -0.23 | -0.85
N#Cc1cnc2c(Br)cnn2c1N | 1.6 | .
COc1cc(/C=C2/C(=N)N3C(c4ccccc4)=CSC3=NC2=O)ccc1OCc1ccccc1 | 0.42 | .
C=C(C)C1CC=C(CNc2ccc3c(c2)OCO3)CC1 (stereo not drawn) | 4.4 | 0.1

Other results:
mol | CapD inh | AID504770
COc1ccc(Cc2cnc(NC(=O)Cc3ccccc3)s2)cc1 | i | 2
O=c1[nH]c2c(s1)C(c1ccco1)C1C3CCC(C3)C1S2 (stereo not drawn) | 0.48 | 0.65
CC(NC(=O)C1CCCN1C(=O)c1cccs1)c1ccc(-n2ccnc2)cc1 (stereo not drawn) | . | 0.15
COC(=O)c1ccc(Cl)cc1NC(=O)c1cccnc1Oc1ccccc1 | -0.17 | -0.65
CCOC(=O)C1=C(C)NC2=C(C(=O)CC(c3ccc(OC)c(OC)c3)C2)C1c1cc(OC)ccc1OC (stereo not drawn) | 6.9 | .
NCCCCn1ccnc1 | . | -0.25
O=C(CC1(O)C(=O)N(Cc2ccccc2)c2ccccc21)c1ccncc1 (stereo not drawn) | 0.42 | 1.4
O=c1c2c([nH]c3ccccc13)CCCC2 | 6.7&4.4 | -0.85&-0.25

More compounds:
mol | CapD inh | AID504770
O=C(Nc1cc(-c2ccc(Cl)cc2)[nH]n1)C1Cc2ccccc2C1 | -0.49 | 0.05
CC(=O)N1CCOc2ccc(S(=O)(=O)NCC3CCC(C(=O)Nc4ccc(C)cc4)CC3)cc21 (stereo not drawn) | -0.07 | 0.1
COc1cccc(C2CC(c3cccs3)=NN2C(=O)CSc2nnc(CNC(=O)c3cccs3)n2C)c1OC (stereo not drawn) | 11 | .
CC(C)(Br)C(=O)Nc1nccs1 | 0.42 | 0.7
CCCCn1nnc(NC(=O)c2cccc(F)c2)n1 | -0.74 | 1
COC(=O)C1=C(C)NC(=O)CC1c1ccc(Cl)c(Cl)c1 (stereo not drawn) | 0.065 | .
CC(=O)N1C(=O)C2(C(C#N)=C(N)Oc3n[nH]c(-c4ccc(F)cc4)c32)c2ccccc21 (stereo not drawn) | 0.01 | .
CC(C)(C)CC(=O)Nc1cccc(F)c1 | -0.45 | 1.1

Next part
mol | CapD inh | AID504770
Cc1cccnc1/N=C/c1c(O)c2ccccc2oc1=O | 1.4 | 0.4
CCOC(=O)N/N=C/c1ccccc1C(F)(F)F | . | -0.35
O=C(O)c1ccc(Cn2ccc3ccccc32)o1 | . | -1.1
CCOc1ccc(C2C(N3C(=O)c4ccc([N+](=O)[O-])cc4C3=O)C(=O)N2c2ccc(OCC)cc2)cc1 (stereo not drawn) | -0.34 | .
O=C(c1ccccc1)c1nccn1-c1ccc(Cl)nn1 | -0.48 | -0.5
COc1ccccc1CC(=O)N(C(C)C)C(C)C | -0.11 | -0.55
N#Cc1c(-c2ccccc2)cc(-c2ccccc2)nc1N | 41 | 1.2
CC(=O)N1c2ccccc2C(C)(c2ccccc2)CC1(C)C (stereo not drawn) | 1.1 | -0.85

Record cards (already shown). Screens in order: CapD inh | AID504770
`O=C(c1ccccc1)c1nccn1-c1ccc(Cl)nn1` across the screens: -0.48 | -0.5
`CCOC(=O)N/N=C/c1ccccc1C(F)(F)F` across the screens: . | -0.35
`N#Cc1c(-c2ccccc2)cc(-c2ccccc2)nc1N` across the screens: 41 | 1.2
`CCOc1ccc(C2C(N3C(=O)c4ccc([N+](=O)[O-])cc4C3=O)C(=O)N2c2ccc(OCC)cc2)cc1` (stereo not drawn) across the screens: -0.34 | .
`CC(=O)N1c2ccccc2C(C)(c2ccccc2)CC1(C)C` (stereo not drawn) across the screens: 1.1 | -0.85

Next part
mol | CapD inh | AID504770
CCn1c(=S)[nH]c2c(c1=O)C1(CCCC1)Cc1ccccc1-2 | 0.14 | 0.9
OCCNc1nc2ccccc2n1-c1ncnc2sc3c(c12)CCCC3 | . | 0.6
CCN(CC(=O)Nc1ccccc1)S(=O)(=O)c1ccccc1 | -0.65 | -0.7
Cc1ccc(S(=O)(=O)CC(c2ccccc2)N2CCOCC2)cc1 (stereo not drawn) | 0 | 0.8
CCC1(C(=O)c2ccc(C)cc2)C(c2ccccc2)C1(C(=O)OC)C(=O)OC (stereo not drawn) | -0.15 | .
COC(=O)C(NC=O)C(O)(C#Cc1ccccc1)C(F)(F)F (stereo not drawn) | . | -1.2
O=C(NCc1ccncc1)C1CCN(S(=O)(=O)c2ccccc2)CC1 | . | -0.1
O=C(O)C1CCCN1S(=O)(=O)c1cccs1 (stereo not drawn) | 0.59 | -0.15

The results go on.
mol | CapD inh | AID504770
Nc1nonc1C(=O)NCc1ccc2c(c1)OCO2 | -0.42 | -0.45
OC(c1ccc(Cl)cc1)c1c[nH]cc1-c1c(Cl)cccc1Cl (stereo not drawn) | -0.49 | .
Cc1noc(C)c1C(=O)N(c1ccccc1)C(C(=O)NC1CCCC1)c1ccc(F)cc1 (stereo not drawn) | . | 1.1
COC(CNC(=O)c1ccc(NC2=NC3CS(=O)(=O)CC3S2)cc1)OC (stereo not drawn) | -0.22 | -0.6
CC1CC(Nc2ccccc2)c2ccccc2N1C(=O)c1ccc(NS(C)(=O)=O)cc1 (stereo not drawn) | -1.2 | .
CCCCc1noc2c1/C(=N\O)CC(c1ccccc1)C2 (stereo not drawn) | . | 1.1
NS(=O)(=O)c1ccc(CCNC(=O)CSc2nc3ccccc3c(=O)n2C2CCCC2)cc1 | . | -0.65
CCN1C(=O)/C(=C2/Sc3ccc(OC)cc3N2C)OC1=S | 0.46 | -0.4

Continuation:
mol | CapD inh | AID504770
CCC(=O)Nc1ccc2nc(SCC(=O)Nc3ccc(OC)cc3[N+](=O)[O-])sc2c1 | -0.41 | .
CC(=O)Oc1ccc(C)cc1-n1nc2ccccc2n1 | 5.9 | -0.4
CCOC(=O)N1CCC(NC(=O)CCc2c(C)nc3cc(-c4ccccc4)nn3c2C)CC1 | 5.5 | -0.75
Cc1ccc(C2C3=C(CC(c4ccccc4)CC3=O)Nc3ccccc3N2C(=O)CCC(=O)O)cc1 (stereo not drawn) | 6.6 | .
O=C(O)/C=C/C(=O)NN1C(=O)c2ccccc2C1=O | 0.3 | -0.65
CCc1ccc(N2C(=O)c3sc4nnc(C)c(=O)n4c3C2=O)cc1 | -2.1* | .
CC[N+]1(CC(O)COC2CC(C)CC(C)(C)C2)CCOCC1 (stereo not drawn) | 0.38 | -0.35
Cc1ccc(NC(=O)N(Cc2cc3cc(C)cc(C)c3[nH]c2=O)CC2COCCO2)cc1 (stereo not drawn) | . | -0.55

Other entries follow.
mol | CapD inh | AID504770
Cc1nc(SCCN2C(=O)c3ccccc3C2=O)c2c3c(sc2n1)CCC3 | -0.08 | .
CC(C)(C)OC(=O)Cn1c(=O)cnc2ccccc21 | . | -1.4
COc1cccc(-n2cc(C(=O)NCCC(=O)Nc3nnc(C)s3)c3ccccc3c2=O)c1 | -0.61 | .
Cc1nc(C(N)=O)c(N)n1C | 0.09 | -0.35
CC(=O)N[C@@H](Cc1ccc(OC(C)=O)cc1)C(=O)O | 0.21 | .
CC(=O)Oc1ccc2c(-c3ccccc3)cc(=O)oc2c1 | -0.14 | 0.5
Cc1cccc(C)c1NC(=O)CSCC(=O)O | -0.71 | -0.4
CCCCOC(=O)C1CCCC(C)N1 (stereo not drawn) | -0.1 | 0.1

The final five compounds of the part before lead into the next.
mol | CapD inh | AID504770
Cc1nc(C(N)=O)c(N)n1C | 0.09 | -0.35
CC(=O)N[C@@H](Cc1ccc(OC(C)=O)cc1)C(=O)O | 0.21 | .
CC(=O)Oc1ccc2c(-c3ccccc3)cc(=O)oc2c1 | -0.14 | 0.5
Cc1cccc(C)c1NC(=O)CSCC(=O)O | -0.71 | -0.4
CCCCOC(=O)C1CCCC(C)N1 (stereo not drawn) | -0.1 | 0.1
N#C/C(=C\c1ccc(C(F)(F)F)cc1)c1cccs1 | 6.4 | 1.1
NS(=O)(=O)c1ccc(CCNCC(=O)N2CCc3ccccc32)cc1 | . | -0.3
CCSC(SCC)[C@H](OC(C)=O)[C@@H](OC(C)=O)[C@@H](OC(C)=O)[C@@H](COC(C)=O)OC(C)=O | 0.17 | .
O=S(=O)(Cc1ccccc1Cl)c1snnc1-c1ccccc1 | 0.065 | .
COc1ccc(Br)cc1S(=O)(=O)N1CCCCCC1 | . | -0.85
CC(=O)ON1C(C)(C)CC(OC(=O)c2ccco2)CC1(C)C | 0.45 | 0.95
C=CCN1C(=O)/C(=C\c2ccc(O)c(Br)c2)C(=O)NC1=S | 3.4 | -0.25
O=C(O)CCCC(=O)N1N=C(c2cccs2)CC1c1cn(-c2ccccc2)nc1-c1ccccc1 (stereo not drawn) | 40 | .

Next records:
mol | CapD inh | AID504770
CCc1ccc(N(CC)C(=O)c2cn(CC)c(=O)c3cc(OC)c(OC)cc23)cc1 | -0.82 | .
Cc1cc2oc(=O)cc(CN(C)c3ccccc3)c2cc1Cl | . | -0.05
O=C(NCc1ccco1)c1ccc2c(c1)C(=O)c1ccccc1-2 | -0.015 | 0.5
CCC(COc1nnnc2ccccc12)NC(=O)Cn1c(=O)cc(C)c2ccccc21 (stereo not drawn) | 1.2 | -0.1
CCOC(=O)CSc1nc2c(C)ccc(F)c2cc1C | 1.3 | -0.5
O=S1(=O)c2cccc3cccc(c23)N1Cc1cccc(C(F)(F)F)c1 | 0.12 | -0.4
CC(C)Nc1nc(NC(C)C)nc(OCCOC(=O)Nc2ccccc2)n1 | -0.28 | 1.7
COc1cc(C2Nc3ccc(C(=O)c4ccccc4)cc3NC3=C2C(=O)CC(C)(C)C3)ccc1O (stereo not drawn) | -0.84 | .

The list continues:
mol | CapD inh | AID504770
CCC(=O)Nc1sc(CC#N)nc1-c1ccc(C)cc1 | . | -1.1
CCNC(C)C(=O)Nc1ccc(C)cc1 (stereo not drawn) | . | 0.25
C=CCc1ccccc1OCc1nc2ccccc2[nH]1 | -0.1 | -1.4
CCOC(=O)c1sc(NC(=O)c2c(Br)cnn2CC)c(C#N)c1C | -0.17 | 1
O=S(=O)(c1cnc[nH]1)N1CCN(C(c2ccc(F)cc2)c2ccc(F)cc2)CC1 | -1.2 | 2.4
C=CCN(CC=C)C(=O)Cc1ccc(C)cc1 | 0.79 | 0.45
